# VDR inhibitor: vitamin D3 receptor (human) inhibition; VDR-SRC2-3 peptide fluorescence polarization, 2 h; Potency, µM, without a hit: max response, negative = inhibition, actives largely listed as inhibitors; hit rate 0.93% among 400,000; AID 504847; active = well fitted inhibition curve with a large enough effect; inconclusive = small, poorly fitted or top-dose-only effect, or another doubt; inactive = no such curve, though single readings can be large or run the other way; also: series mostly up to about 120 µM
# Target sequence (P11473 whole entry, looked up): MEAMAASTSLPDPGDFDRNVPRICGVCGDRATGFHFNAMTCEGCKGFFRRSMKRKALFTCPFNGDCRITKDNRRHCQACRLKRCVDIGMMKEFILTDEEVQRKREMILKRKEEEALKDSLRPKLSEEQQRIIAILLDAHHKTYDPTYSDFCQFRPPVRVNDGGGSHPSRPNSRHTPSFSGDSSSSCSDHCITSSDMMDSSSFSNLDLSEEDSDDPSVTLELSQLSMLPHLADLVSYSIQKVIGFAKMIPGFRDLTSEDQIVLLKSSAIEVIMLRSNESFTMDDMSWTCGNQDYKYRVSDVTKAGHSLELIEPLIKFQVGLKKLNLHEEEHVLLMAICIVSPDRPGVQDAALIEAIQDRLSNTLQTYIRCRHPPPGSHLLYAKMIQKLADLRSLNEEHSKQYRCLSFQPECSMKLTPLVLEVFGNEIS
#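 Signal is fluorescence polarization, reporting how far test compounds block the interaction of VDR with the SRC2-3 coregulator peptide after a 2 h room-temperature incubation.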
# * marks the source's active call; other numbers are inactive results; ? = inconclusive; & = joins results of further samples; [ ] = dose if it differs, or a comment. % is scaled to controls: 0 for no effect and ±100 for the full control effect; potency is read from the fitted curve at half-maximal effect.
Cc1cc(C)cc(NC(=O)c2cc3c(=O)n4ccccc4nc3s2)c1
  VDR inhibitor: -16%

N/C(=N\OC(=O)CSc1ccccc1)c1ccccn1
  VDR inhibitor: 25%

Cc1ccc(NC(=O)NCCc2ccc(S(N)(=O)=O)cc2)cc1
  VDR inhibitor: -7%

Oc1ccccc1Nc1nc(-c2ccccc2)c2cc(Cl)ccc2n1
  VDR inhibitor: 0%

CC(C)Cn1c(SCC(=O)N2CC(=O)Nc3ccccc32)nc2ccccc21
  VDR inhibitor: -6%

Cc1cccc(C)c1NC(=O)C1c2cccc[n+]2CC(=O)N1Cc1cccs1 (configuration not stated)
  VDR inhibitor: -7%

CCOc1ccccc1-c1nnc(CS(=O)(=O)c2ccccc2)o1
  VDR inhibitor: 7%

COc1cccc(NC(=O)C2CCCN(S(=O)(=O)c3cccc4cccnc34)C2)c1 (configuration not stated)
  VDR inhibitor: -7%

CCCCNC(=O)CCCn1c(=O)[nH]c2ccc(Br)cc2c1=O
  VDR inhibitor: -2%

CC1CCC(NC(=O)c2ccc(NC3=NC4CS(=O)(=O)CC4S3)cc2)CC1 (configuration not stated)
  VDR inhibitor: -9%

# A different layout for some results above.
SMILES | VDR inhibitor
CCOc1ccccc1-c1nnc(CS(=O)(=O)c2ccccc2)o1 | 7%
COc1cccc(NC(=O)C2CCCN(S(=O)(=O)c3cccc4cccnc34)C2)c1 (configuration not stated) | -7%

# (cont.)
COc1ccc(-c2csc(C)n2)cc1Br
  VDR inhibitor: -3%

CC(=O)c1cccc(NS(C)(=O)=O)c1
  VDR inhibitor: 4%

CC(=O)OCC1(O)CC23CCC4c5ccoc5CCC4(C)C2CCC1C3 (configuration not stated)
  VDR inhibitor: -13%

O=c1ccc(-c2ccc(S(=O)(=O)Nc3ccc(F)cc3)o2)n[nH]1
  VDR inhibitor: -2%

C=CCN1C(=O)C(=O)N(CC(=O)c2ccc3c(c2)CCCC3)C1=O
  VDR inhibitor: -12%

CCOC(=O)c1cccc(NC(=O)Nc2c(C)n(C)n(-c3ccccc3)c2=O)c1
  VDR inhibitor: 8%

O=C(NCCc1ccccc1)C1CCC(CNc2nc(=S)[nH]c3ccccc23)CC1 (configuration not stated)
  VDR inhibitor: -2%

O=C(O)CCNS(=O)(=O)c1ccc2c(c1)Cc1ccccc1-2
  VDR inhibitor: 0%

CCCn1ccc2c(OCC(=O)NCc3ccc(F)cc3)cccc2c1=O
  VDR inhibitor: 12%

COc1cccc(-n2c(C)nnc2SCC(=O)Nc2ccccc2N2CCOCC2)c1
  VDR inhibitor: -8%

CC(C)Cc1nn2c(=O)cc(COc3ccc(NC(=O)c4ccco4)cc3)nc2s1
  VDR inhibitor: 2%

CCCC(=O)NC(C)c1nc(-c2ccc(C)cc2)no1 (configuration not stated)
  VDR inhibitor: -20%

Cc1cccc(/C=C/c2onc(C)c2S(=O)(=O)N2CCC(C(=O)N3CCCCCC3)CC2)c1
  VDR inhibitor: -18%

O=C(Nc1nnc(SCc2cccc(F)c2)s1)c1ccco1
  VDR inhibitor: -14%

N#C/C(C(N)=O)=c1/ccc2c(c1)N1C3=C(CCCC3)CC3CCCCC31N=2 (configuration not stated)
  VDR inhibitor: -7%

CCCc1cc(=O)[nH]c(SCc2cc(=O)oc3cc(C)c(C(C)C)cc23)n1
  VDR inhibitor: -9%

Cc1ccc2[nH]c(=O)c(CN(CCCN(C)C)C(=O)Nc3ccc(F)cc3)cc2c1
  VDR inhibitor: 8%

CC(C)(C)c1cc(C(=O)O)n[nH]1
  VDR inhibitor: ?

COC(=O)c1c[nH]n2c(=O)c(C(C)C)c(C)nc12
  VDR inhibitor: -20%

O=C(CN1C(=O)c2ccccc2C1=O)N1CCN(c2ccccn2)CC1
  VDR inhibitor: 16%

N#CC(c1ccc(=O)[nH]n1)c1ccc(Cl)cc1Cl (configuration not stated)
  VDR inhibitor: 2%

Cc1ccc2nc(NC(=O)C3CC3C)sc2c1 (configuration not stated)
  VDR inhibitor: -2%

Cc1c(NC(=S)N/N=C/c2ccc(N(C)C)cc2)c(=O)n(-c2ccccc2)n1C
  VDR inhibitor: -8%

Cc1c(N=NC2=C(O)CC(C)(C)CC2=O)cc2c(c1[N+](=O)[O-])C(C)(C)CC2(C)C
  VDR inhibitor: 114%[activator]

C=CCn1c(SCC(=O)Nc2ccccc2CC)nnc1-c1ccncc1
  VDR inhibitor: 13%

CC(C)Cn1c(=S)[nH]c2ccccc2c1=O
  VDR inhibitor: -24%

CCCCOc1ccc(C)cc1CN(CCO)CCO
  VDR inhibitor: -2%

CNS(=O)(=O)c1cc(OCC(N)=O)c(C)cc1Cl
  VDR inhibitor: -10%

CCOCCCNC(=O)C(NC(=O)c1ccc2c(c1)OCO2)c1ccc(Cl)cc1 (configuration not stated)
  VDR inhibitor: -11%

C=CCN(c1ccc(C(=O)NCCN2CCOCC2)cc1)S(C)(=O)=O
  VDR inhibitor: 2%

O=C(CN1CCCCC1)NC(=O)Nc1ccccc1F
  VDR inhibitor: 18%

CN(CC(=O)Nc1cccc(F)c1)C(=O)c1cc(S(=O)(=O)N2CCN(c3ccccc3)CC2)ccc1Cl
  VDR inhibitor: 5%

CN(C)c1nc(N)nc(CSc2nc3c(c(=O)n(C)c(=O)n3C)n2Cc2ccccc2F)n1
  VDR inhibitor: -4%

Cc1ccc(C(=O)N2CCN(CCc3ccncc3)CC2)cc1
  VDR inhibitor: 22%

COc1cccc(N2CCN(C(=O)C3CCN(S(=O)(=O)c4cccs4)CC3)CC2)c1
  VDR inhibitor: 3%

COC(=O)C1CCN(C(=O)COC(=O)c2n[nH]c3ccccc23)CC1
  VDR inhibitor: 8%

CO[C@H]1CC[C@@]2(C)[C@@H](CC[C@@H]3[C@@H]2CC[C@@]2(C)[C@H]3C[C@H](C(=O)O)O[C@]23CCCO3)C1
  VDR inhibitor: -14%

O=C(Nc1ccccc1-c1ccccc1)c1ccccc1
  VDR inhibitor: -14%

CC/C(=N/N=C(\CC)c1ccccc1)c1ccccc1
  VDR inhibitor: 1%

COc1ccccc1CNC(=O)CN(c1ccc(C)cc1)S(=O)(=O)c1c(C)noc1C
  VDR inhibitor: 1%&-5%

O=C(c1ccc(F)c(F)c1)N1CCC2(CC1)NCCc1[nH]cnc12
  VDR inhibitor: 4%

CCN(CC(=O)Nc1c(F)cccc1F)C(=O)C1CCN(S(=O)(=O)c2ccc(C)c(C)c2)CC1
  VDR inhibitor: 13%

CCN(CC)CCN(Cc1cc2cc(C)ccc2[nH]c1=O)C(=O)Nc1ccccc1OC
  VDR inhibitor: -4%

CN1C(=O)C(N=Nc2ccc([N+](=O)[O-])cc2)SC1=S (configuration not stated)
  VDR inhibitor: -1%

Cc1ccc(S(=O)(=O)CC(=O)N(CCCN(C)C)c2nc3ccc(C)cc3s2)cc1
  VDR inhibitor: -21%

Cc1cc(/C=C(\C#N)C(=O)OCC#N)c(C)n1CC(C)C
  VDR inhibitor: -3%

Cc1ccnc(NC(=O)c2c(C)oc3ncn(CC(C)C)c(=O)c23)c1
  VDR inhibitor: 6%

CCN(CC)c1nn2c(=O)c(C(=O)NCc3ccc(N(C)C)cc3)cnc2s1
  VDR inhibitor: 15%

Cc1ccccc1N(CC(=O)NCc1ccncc1)S(C)(=O)=O
  VDR inhibitor: 14%

O=C1CC(c2nnc(Cc3ccc(Cl)cc3)o2)CN1c1ccccc1 (configuration not stated)
  VDR inhibitor: -1%

CCOc1ccc(/C=C/[N+](=O)[O-])c2ccccc12
  VDR inhibitor: 20µM*

FC(F)(F)c1cc(-c2ccccc2)nc(-n2cncn2)n1
  VDR inhibitor: 9%

COCCNCC(=O)Nc1ccc(C)c(S(=O)(=O)N2CCCCC2)c1
  VDR inhibitor: -4%

O=C(O)c1cc2ccccc2n1-c1ccccc1
  VDR inhibitor: 8%

CC(C)[C@H](NS(=O)(=O)c1ccccc1)C(=O)Nc1ccccc1N1CCOCC1
  VDR inhibitor: -9%

COc1ccccc1CCN=C(N)NS(=O)(=O)c1ccc(F)cc1
  VDR inhibitor: 3%

COc1ccc(N(C(=O)c2snc(C(N)=O)c2N)C(C(=O)NC2CCCC2)c2ccco2)c(OC)c1 (configuration not stated)
  VDR inhibitor: -4%

Cc1ccc(CNc2cc(C)nc3nc(-c4ccc(C)cc4)nn23)cc1
  VDR inhibitor: 4%

O=C(/C(=N/O)n1cncn1)c1ccccc1Cl
  VDR inhibitor: 21%

CCOC(=O)C(=N/O)/C(C)=N/NC(C)=O
  VDR inhibitor: 24%

COc1ccc(CCNC(=O)CCc2c(C)nc3cc(-c4ccccc4)nn3c2C)cc1OC
  VDR inhibitor: -15%

O=C1C[C@H](c2ccccc2Cl)N1S(=O)(=O)c1ccccc1[N+](=O)[O-]
  VDR inhibitor: 1%

COc1cc(-n2c(=O)c3ccccc3n(CC(=O)OCc3ccccc3)c2=O)cc(OC)c1OC
  VDR inhibitor: 17%

Cc1ccc2sc(N(CCN(C)C)C(=O)c3ccc4ccccc4c3)nc2c1C
  VDR inhibitor: 9%

COc1cc2c(cc1OC)C(C)N(C(=O)C(NC(=O)c1ccccc1)C(C)C)CC2 (configuration not stated)
  VDR inhibitor: 5%

Cc1cc(NC(=O)CC2CCCC2)ccc1Br
  VDR inhibitor: 15%

CC(C)(C)c1ccc(NC(=O)CSc2n[nH]c(=O)n2C2CC2)cc1
  VDR inhibitor: 0%

O=C(COC(=O)CCC(=O)c1ccc2c(c1)OCCO2)NCc1ccc2c(c1)OCO2
  VDR inhibitor: 12%

C=CCn1c(SCC(=O)NCc2ccco2)nc2ccccc2c1=O
  VDR inhibitor: -6%

COCC1CCN(Cc2c(C(=O)N3CCc4ccccc4C3)nc3ccc(Cl)cn23)C1 (configuration not stated)
  VDR inhibitor: -9%

# Among those listed so far, 9 have a Cl atom:
Oc1ccccc1Nc1nc(-c2ccccc2)c2cc(Cl)ccc2n1
  VDR inhibitor: 0%

N#CC(c1ccc(=O)[nH]n1)c1ccc(Cl)cc1Cl (configuration not stated)
  VDR inhibitor: 2%

CNS(=O)(=O)c1cc(OCC(N)=O)c(C)cc1Cl
  VDR inhibitor: -10%

CCOCCCNC(=O)C(NC(=O)c1ccc2c(c1)OCO2)c1ccc(Cl)cc1 (configuration not stated)
  VDR inhibitor: -11%

CN(CC(=O)Nc1cccc(F)c1)C(=O)c1cc(S(=O)(=O)N2CCN(c3ccccc3)CC2)ccc1Cl
  VDR inhibitor: 5%

O=C1CC(c2nnc(Cc3ccc(Cl)cc3)o2)CN1c1ccccc1 (configuration not stated)
  VDR inhibitor: -1%

O=C(/C(=N/O)n1cncn1)c1ccccc1Cl
  VDR inhibitor: 21%

O=C1C[C@H](c2ccccc2Cl)N1S(=O)(=O)c1ccccc1[N+](=O)[O-]
  VDR inhibitor: 1%

COCC1CCN(Cc2c(C(=O)N3CCc4ccccc4C3)nc3ccc(Cl)cn23)C1 (configuration not stated)
  VDR inhibitor: -9%

# An excerpt, so the mix of outcomes need not match the whole.
